PV pol inh: poliovirus RdRp elongation inhibitors, primary screen, biochemical, fluorescence polarization, total intensity. poliovirus polymerase elongation; hits give low values. % elongation, % (compound at 16.7 µg/mL). 150,000 tested, 0.66% active; in the data active = % elongation below about 90%; note: some results filed as inactive read as strong as hits
Target sequence (P03300 1749-2209 limits assumed): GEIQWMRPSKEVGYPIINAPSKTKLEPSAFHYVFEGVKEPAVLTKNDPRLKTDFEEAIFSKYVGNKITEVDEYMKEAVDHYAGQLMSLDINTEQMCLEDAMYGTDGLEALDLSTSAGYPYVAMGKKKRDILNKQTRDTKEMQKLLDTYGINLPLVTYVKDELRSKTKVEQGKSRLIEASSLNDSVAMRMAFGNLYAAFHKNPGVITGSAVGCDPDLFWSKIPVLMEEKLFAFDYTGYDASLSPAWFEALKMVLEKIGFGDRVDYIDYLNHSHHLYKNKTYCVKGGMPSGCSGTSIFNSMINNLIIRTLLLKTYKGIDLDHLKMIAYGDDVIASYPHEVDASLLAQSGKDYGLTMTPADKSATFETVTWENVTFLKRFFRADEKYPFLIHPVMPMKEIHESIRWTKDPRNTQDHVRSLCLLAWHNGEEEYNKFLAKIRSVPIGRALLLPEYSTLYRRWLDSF
Mtb MenB inh: M. tuberculosis MenB inhibitors, primary screen, biochemical, absorbance | 1,4-dihydroxy-2-naphthoyl-CoA synthase (Mycobacterium tuberculosis (strain ATCC 25618 / … | 100,000 tested, 0.43% active | MenB enzyme assay, absorbance read-out; some hits fall short of the stated cut | inhibition, %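 (about 12 µg/mL by stock and volumes)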;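 active = mean of two replicates above 30%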;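 note: 0% = no compound and 100% = wells with inactive enzyme; the first replicate is given; strong numbers were not always called active; inactives centre near -10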
Target sequence (P9WNP5 whole entry, looked up): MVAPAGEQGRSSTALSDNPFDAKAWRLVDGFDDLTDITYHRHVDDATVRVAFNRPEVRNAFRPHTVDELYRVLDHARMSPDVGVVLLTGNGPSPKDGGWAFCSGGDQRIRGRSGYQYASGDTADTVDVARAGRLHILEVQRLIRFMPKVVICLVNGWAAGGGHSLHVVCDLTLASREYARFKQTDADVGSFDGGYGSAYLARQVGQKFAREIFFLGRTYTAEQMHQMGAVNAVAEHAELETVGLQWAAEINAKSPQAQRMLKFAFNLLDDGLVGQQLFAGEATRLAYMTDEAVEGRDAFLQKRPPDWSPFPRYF
MbtI inh: MbtI salicylate synthase inhibitors, primary screen, biochemical, fluorescence intensity; purified MbtI enzyme, fluorescence intensity read-out; inhibition, %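 (about 17 µg/mL by stock and volumes)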; P9WFX0; 100,000 tested, 0.89% active; AID 493033, 2011;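 active = above 50% in both replicates, above 80% if mildly self-fluorescent; inactive = the rest, strongly fluorescent compounds included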;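 note: 0% = mean of negative and 100% = mean of positive controls; one replicate is shown; some compounds called inactive have numbers as strong as hits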
PV pol inh intensity: second read-out of PV pol inh, no call of its own (marks repeat the call); % elongation; measured here: total intensity read-out; formula for this scale not given here;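 total fluorescence in place of polarization; lower means less elongation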
* marks the source's active call; other numbers are inactive results; · = not tested or not shown.

Each structure is followed by: MbtI inh	PV pol inh intensity	PV pol inh	Mtb MenB inh
1) COc1ccc(Cl)cc1S(=O)(=O)N1CCC(C(N)=O)(N2CCCCC2)CC1
→ -5	100	101	-1
2) Cc1nn(-c2ccccc2)c2sc(C(=O)N(C)c3ccccc3)cc12
→ -1	102	103	-45
3) O=C(CCCN1C(=O)c2ccccc2C1=O)NC1=NCCS1
→ 2	100	100	-17
4) CN=C1SC(CC(=O)NC)C(=O)N1C (configuration not stated)
→ -7	101	100	-5
5) O=C1/C(=C/c2ccccc2Br)Cc2ccccc21
→ 7	106	104	-43
6) C[n+]1ccc(/C=C/c2ccc3c(c2)OCO3)c2ccccc21
→ 16	109	104	-216
7) CCc1nnc2c3c(-c4ccc(F)cc4)c(C)sc3ncn12
→ -2	103	101	9
8) Cc1cc(C)[n+]2c(n1)SC(C)C2 (configuration not stated)
→ 12	102	100	8
9) O=C(O)c1c2c(nc3ccc(F)cc13)CCCC2
→ -21	103	102	-14
10) COC(=O)c1cc2c(ccn2-c2ccc(F)cc2)n1CC(=O)c1ccc(OC)cc1
→ -4	101	101	1
11) C/C(=C\C(=O)NN)NNc1ncnc2ccccc12
→ 18	105	99	-54
12) c1ccc(OCc2nn[nH]n2)cc1
→ -3	92	99	-8
13) Cc1cc(Cc2ccc(C(F)(F)F)cc2)c(=O)[nH]n1
→ -12	113	101	9
14) Cc1cc(C)cc(Oc2coc3c(CN(C)C)c(O)ccc3c2=O)c1
→ ·	108	100	-15
15) O=C(OCC(=O)N1c2ccccc2Sc2ccccc21)C1=COCCO1
→ 62	102	99	0
16) O=S(=O)(c1ccccc1)N(C1=NCCS1)S(=O)(=O)c1ccccc1
→ -9	·	·	-19
17) O=C(O)CSCC(=O)Nc1cccc2ccccc12
→ 11	101	100	36*
18) CCCNC(=O)c1ccc2c(c1)NC(=O)/C(=C/c1ccccc1)S2
→ 0	98	105	5
19) CCn1c(=N)c(C(=O)NC2CCCCC2)cc2c(=O)n3ccccc3nc21
→ 116	103	104	-15
20) CC1(C)C2CC=C(COCC(O)CNCc3ccccn3)C1C2 (configuration not stated)
→ -8	118	98	-43

Shown with tabs: part of the list above.
nr	SMILES	MbtI inh	PV pol inh intensity	PV pol inh	Mtb MenB inh
8	Cc1cc(C)[n+]2c(n1)SC(C)C2 (configuration not stated)	12	102	100	8
9	O=C(O)c1c2c(nc3ccc(F)cc13)CCCC2	-21	103	102	-14

Going on with the list:
Each structure is followed by: MbtI inh	PV pol inh intensity	PV pol inh	Mtb MenB inh
21) Cn1c(=S)[nH]c2ccccc21
→ 101*	92	90	-27
22) COc1cc(OC)c(OC)cc1CN1CCN(c2cccc(C)c2C)CC1
→ -1	101	96	4
23) COc1ccccc1NC(=O)Nc1cc(C(C)(C)C)nn1-c1ccccc1
→ 2	·	·	-29
24) COc1ccc2sc(C3C(=O)c4cccnc4C3=O)nc2c1 (configuration not stated)
→ ·	107	106	-12
25) CC1CC(C)CN(C(c2ccco2)c2sc3ncnn3c2O)C1 (configuration not stated)
→ 22	112	110	-45
26) CN1C(=C2C(=O)CC(C)(C)CC2=O)Sc2ccccc21
→ 8	104	103	4
27) C[n+]1cccc2ccc(O)cc21
→ 21	186	61	-187
28) CCN(C#N)c1ccc(Cc2ccc(N(C#N)CC)cc2)cc1
→ -6	104	102	-80
29) N#Cc1c(SCC(=O)C23CC4CC(CC(C4)C2)C3)sc2c(=O)[nH]c(=O)[nH]c12
→ 16	111	99	23
30) COc1ccc(N2C(=O)CC(c3ccccc3)C2=O)cc1 (configuration not stated)
→ 7	102	101	-3
31) O=C(CSc1nnc(-c2ccccc2F)n1C1CC1)Nc1ccccc1
→ -12	106	104	·
32) Cc1noc(C(=O)N(C)C2CCCCC2)c1Cl
→ 4	101	99	-20
33) Cc1nn(C)c2[nH]c(C(F)(F)F)cc(=O)c12
→ -1	94	101	-12
34) Cc1cc(C(=O)Nc2nc(-c3ccccc3)c(-c3ccccc3)s2)no1
→ 10	100	99	-9
35) CN(C(=O)COc1ncnc2ccccc12)C1CCCCC1
→ 3	104	100	·
36) CC(=O)NCc1ccc(C(=O)CSc2nnc(-c3ccc4c(c3)OCO4)n2-c2ccccc2)o1
→ 14	110	105	-15
37) O=S1(=O)C=CC(NCc2ccccc2)C1 (configuration not stated)
→ ·	97	100	6
38) Cc1ccc(/C=C/C(=O)OCC(=O)c2cc(C)c(C)cc2C)o1
→ 0	99	104	-37
39) Cc1cc(C)c2c(-n3cccc3)c(C(=O)Oc3ccccc3)sc2n1
→ ·	103	104	-35
40) CCCCc1cc(=O)oc2c(CN(C)C)c(O)ccc12
→ 147	102	100	-19
41) C=CCSc1nc(-c2ccccc2)c(C#N)c(=O)[nH]1
→ ·	103	96	9
42) CC1CC(NC(=S)NCCO)CC(C)(C)C1 (configuration not stated)
→ 3	100	99	-15
43) Cc1ccc(C(C)(C)C)c(OCCOCCN2CCCC2)c1
→ -12	104	99	5
44) O=C(NCc1ccco1)c1ccc(-c2ccccc2Cl)o1
→ ·	100	101	-7
45) NC(=O)C1CCN(C(=O)CN2CCc3ccccc3C2)CC1
→ -2	104	104	-34
46) CCOC(=O)N1CCN(S(=O)(=O)c2ccc(C(=O)Nc3cc(C)on3)cc2)CC1
→ -4	101	102	-51
47) O=c1c2c3c(sc2nc2ccc(NCc4ccco4)nn12)CCCC3
→ -9	110	105	-21
48) Cc1cccc2cnn(CC(=O)N3CCc4ccccc4C3)c12
→ 1	102	101	-27
49) CCOC(=O)N1CCN(C(=O)c2cn(CC(C)C)c(=O)c3c2c2ccccc2n3C)CC1
→ 28	103	100	-6
50) Cc1ccc(-c2nc3ccc(NCc4cccs4)cc3o2)cc1
→ ·	111	108	1
51) Oc1ccc(Cl)c2cccnc12
→ 2	99	101	9
52) CNC(=O)c1cc(S(=O)(=O)NC)ccc1C
→ 2	104	103	13
53) COc1cc(/C=C(\C#N)C(=O)NCc2cccnc2)ccc1O
→ 27	147	100	-159
54) c1ccc(-c2nnc(Cc3cn4ccsc4n3)o2)cc1
→ -10	111	103	-10
55) CCOC(=O)c1ccc(-n2c(C)cc(/C=N/O)c2C)cc1
→ -9	99	101	-16
56) CC(C)CNc1cc(C(C)C)c(C#N)c2nc3ccccc3n12
→ 3	101	102	-6
57) O=C(N/N=C/c1cccnc1)c1ccc(CN2CCOCC2)cc1
→ 14	104	102	-13
58) CN(C)S(=O)(=O)c1ccc(S(=O)(=O)N2CCN(C=O)CC2)cc1
→ 2	103	105	31*
59) CC(C)(C)C(=O)Nc1ccc(-c2cc3cc(Cl)ccc3o2)cc1
→ -243	109	103	10
60) S=C(NCCN1CCOCC1)N1CCC(Cc2ccccc2)CC1
→ -8	101	102	-41
61) CCSc1ncc2c(c1C#N)CCC2
→ -4	99	103	-25
62) CCOC(=O)N1CC=C(c2c(C)[nH]c3ccccc23)CC1
→ -10	107	102	7
63) CCOC(=O)C1CCN(C(=O)CCN2C(=O)c3ccccc3Sc3ncccc32)CC1
→ -8	103	102	0
64) Cc1cc(C)cc(NC(=O)/C=C\C(=O)O)c1
→ -2	102	99	9
65) Nc1nc2n(n1)C(c1cccs1)CC(c1ccc(Cl)cc1Cl)N2 (configuration not stated)
→ -4	101	99	6
66) COC(=O)C1SC(C)SCC1=O (configuration not stated)
→ 21	102	103	5
67) Cc1noc2ncnc(N3CCCC(C(=O)Nc4ccc5c(c4)OCO5)C3)c12 (configuration not stated)
→ -7	104	103	-14
68) Cn1c(=O)c(-c2nc(C(C)(C)C)cs2)cn(-c2ccccc2)c1=O
→ 110	106	103	0
69) CCn1cc(C(=O)NCCc2ccccc2)c(=O)c2cc(S(=O)(=O)N3CCC(C)CC3)ccc21
→ 0	108	102	-17
70) Cc1ccc(S(=O)(=O)c2nc(S(C)(=O)=O)sc2NC2CCS(=O)(=O)C2)cc1 (configuration not stated)
→ -1	101	94	-29
71) CN1CCN(S(=O)(=O)c2ccc(Oc3ccc(Oc4ccccc4)cc3)nc2)CC1
→ 7	94	100	5
72) Cc1ccc(/C=C2\C(=O)Nc3ccc(Br)cc32)o1
→ 16	105	104	-24
73) CN(C)C=C1C(=O)CC(c2ccc(Cl)cc2)CC1=O (configuration not stated)
→ 16	96	102	14
74) N#Cc1cccnc1NNC(=O)CCC(=O)O
→ 17	92	103	-25
75) CCN1C(=O)C2(c3ccccc31)c1c(oc3ccccc3c1=O)C(=O)N2CC1CCCO1 (configuration not stated)
→ -13	102	102	6
76) CN(C(=O)c1ccccc1)c1ccc(C(O)(C(F)(F)F)C(F)(F)F)cc1
→ -4	107	104	-25
77) CS(=O)(=O)Nc1ccc(C(=O)N2CC(=O)Nc3ccccc32)cc1
→ 21	103	102	-11
78) N#C/C(=N\Nc1cccc(Cl)c1)C(=O)c1ccco1
→ -2	94	102	-33
79) c1coc(C2Nc3cccc4cccc(c34)N2)c1
→ 129	99	100	19
80) Cc1ccc(C)c(S(=O)(=O)/N=C(\c2ccccc2)N(C)C)c1
→ 1	102	104	-12

More compounds:
Each structure is followed by: MbtI inh	PV pol inh intensity	PV pol inh	Mtb MenB inh
81) COC(=O)c1sc(NC(=O)COc2ccc(OC)cc2)c(C#N)c1C
→ ·	89*	83*	-20
82) O=C(CCSc1ccc(Cl)cc1)NCc1ccncc1
→ ·	109	107	-17
83) CCCNC(=O)c1cc(CCC)on1
→ 4	99	102	-31
84) CCC(C)NC(=O)C1CCN(S(=O)(=O)CC)CC1 (configuration not stated)
→ -1	103	105	4
85) Cc1cc(-c2ccc(S(=O)(=O)NCCN3CCCC3)s2)n[nH]1
→ 43	101	98	17
86) CC(=O)Nc1ncnc2sc3c(c12)CCCC3
→ 15	102	101	·
87) O=C(CN1C(=O)CSC1=O)CN1C(=O)CSC1=O
→ -1	102	102	-20
88) COc1ccc2c(c1)C(C)CC(C)(C)N2C(=O)CSc1ncn[nH]1 (configuration not stated)
→ 0	102	105	0
89) FC(F)(F)c1cccc(-c2ccc(-c3csnn3)o2)c1
→ -12	110	103	-25
90) CCN1CCC(N(Cc2ccco2)C(=O)Nc2cccc(C(F)(F)F)c2)CC1
→ -13	104	102	-2
91) CN(C(=O)COc1ccccc1)c1nc(-c2ccccc2)cs1
→ -7	103	103	-19
92) O=C1CCC(C(=O)OC(C(=O)Nc2ccc(Cl)c(C(F)(F)F)c2)c2ccccc2)N1 (configuration not stated)
→ -4	107	102	·
93) N#CC(C(=O)OC1CCCCC1)c1nc2ccccc2nc1N1CCCCC1 (configuration not stated)
→ -12	·	·	-18
94) C#C[C@]1(O)CCC2C3CCC4=Cc5oncc5C[C@]4(C)C3CC[C@@]21C (some centres not stated)
→ -8	101	99	-1
95) COc1ccc(C(=O)Nc2cccc3nsnc23)cc1OC
→ 6	100	102	-43

From compound 73 as far as 92, as listed above:
Each structure is followed by: MbtI inh	PV pol inh intensity	PV pol inh	Mtb MenB inh
73) CN(C)C=C1C(=O)CC(c2ccc(Cl)cc2)CC1=O (configuration not stated)
→ 16	96	102	14
74) N#Cc1cccnc1NNC(=O)CCC(=O)O
→ 17	92	103	-25
75) CCN1C(=O)C2(c3ccccc31)c1c(oc3ccccc3c1=O)C(=O)N2CC1CCCO1 (configuration not stated)
→ -13	102	102	6
76) CN(C(=O)c1ccccc1)c1ccc(C(O)(C(F)(F)F)C(F)(F)F)cc1
→ -4	107	104	-25
77) CS(=O)(=O)Nc1ccc(C(=O)N2CC(=O)Nc3ccccc32)cc1
→ 21	103	102	-11
78) N#C/C(=N\Nc1cccc(Cl)c1)C(=O)c1ccco1
→ -2	94	102	-33
79) c1coc(C2Nc3cccc4cccc(c34)N2)c1
→ 129	99	100	19
80) Cc1ccc(C)c(S(=O)(=O)/N=C(\c2ccccc2)N(C)C)c1
→ 1	102	104	-12
81) COC(=O)c1sc(NC(=O)COc2ccc(OC)cc2)c(C#N)c1C
→ ·	89*	83*	-20
82) O=C(CCSc1ccc(Cl)cc1)NCc1ccncc1
→ ·	109	107	-17
83) CCCNC(=O)c1cc(CCC)on1
→ 4	99	102	-31
84) CCC(C)NC(=O)C1CCN(S(=O)(=O)CC)CC1 (configuration not stated)
→ -1	103	105	4
85) Cc1cc(-c2ccc(S(=O)(=O)NCCN3CCCC3)s2)n[nH]1
→ 43	101	98	17
86) CC(=O)Nc1ncnc2sc3c(c12)CCCC3
→ 15	102	101	·
87) O=C(CN1C(=O)CSC1=O)CN1C(=O)CSC1=O
→ -1	102	102	-20
88) COc1ccc2c(c1)C(C)CC(C)(C)N2C(=O)CSc1ncn[nH]1 (configuration not stated)
→ 0	102	105	0
89) FC(F)(F)c1cccc(-c2ccc(-c3csnn3)o2)c1
→ -12	110	103	-25
90) CCN1CCC(N(Cc2ccco2)C(=O)Nc2cccc(C(F)(F)F)c2)CC1
→ -13	104	102	-2
91) CN(C(=O)COc1ccccc1)c1nc(-c2ccccc2)cs1
→ -7	103	103	-19
92) O=C1CCC(C(=O)OC(C(=O)Nc2ccc(Cl)c(C(F)(F)F)c2)c2ccccc2)N1 (configuration not stated)
→ -4	107	102	·

Screening results from PubChem.
